High-throughput results (PubChem)
gsp agonist: activates gsp, the McCune-Albright syndrome mutation; gsp mutant cells, cAMP HTRF, 30 min; control for the full effect not named in the record; Potency, µM (top dose mostly 76.9 µM), for inactives: at the highest dose activation (cAMP increase), hits mostly activators; actives 0.13% (n = 340,000); AID 624287; active = well fitted activation curve with a large enough effect; inconclusive = small, poorly fitted or top-dose-only effect, or another doubt; inactive = no such curve, though single readings can be large or run the other way; cell line not stated here;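 also: phosphodiesterase inhibitor Ro 20-1724 added with compounds to block cAMP breakdown; potency is read from the fitted curve at half-maximal effect; nearly all actives have a fitted effect of over 60% in size; about a fifth of the inactives were tested at one dose only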
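Cells in DMEM/10% FBS with G418 were pretreated with compounds in DMSO plus […] (300 uM stock) for 30 min at 37C. cAMP was measured by HTRF (cAMP-d2 plus anti-cAMP antibody-K) after 30 min at room temperature.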
Sfp PPTase inh: inhibitors of Bacillus subtilis Sfp phosphopantetheinyl transferase | Q9F4F7 | Biochemical Sfp PPTase activity, qHTS | Potency, µM, inactives show max response, negative = inhibition, most hits filed as inhibitors | actives 3.5% (n = 310,000); active = well fitted inhibition curve with a large enough effect; inconclusive = small, poorly fitted or top-dose-only effect, or another doubt; inactive = no such curve, though single readings can be large or run the other way;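 also: the enzyme is Sfp with the accession as filed and its product quenches rhodamine fluorescence; potency is read from the fitted curve at half-maximal effect; 0% = enzyme reaction without inhibitor and -100% = no enzyme wells; top concentration of the series not given in the record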
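Fluorescence-quenching assay: 15 nM Sfp-PPTase preincubated 15 min at room temperature with compound, then 5 uM rhodamine-CoA and 12.5 uM BHQ-2-labelled YbbR peptide added. Fluorescence (ex 525/em 598 nm) read at start and after 30 min; difference gives rate.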
ClpP mod: qHTS Assay for Activators of ClpP; ATP-dependent Clp protease proteolytic subunit (Bacillus subtilis (strain 168)), P80244; purified B. subtilis ClpP, FRET peptide cleavage, 20 min; Potency, µM (top dose mostly 57.5 µM), inactives show at the top dose activity change, negative = active; actives 1.9% (n = 340,000); AID 651965, 2013; active = well fitted falling curve with a large enough effect; inconclusive = small, poorly fitted or top-dose-only effect; inactive = no such curve, though single readings can be large or run the other way; also: potency is read from the fitted curve at half-maximal effect; the source files actives as falling curves though it sought activators and does not explain the sign; nearly all actives have a fitted effect of over 65% in size; many hits overshoot -100%
Target sequence (P80244 whole entry, looked up): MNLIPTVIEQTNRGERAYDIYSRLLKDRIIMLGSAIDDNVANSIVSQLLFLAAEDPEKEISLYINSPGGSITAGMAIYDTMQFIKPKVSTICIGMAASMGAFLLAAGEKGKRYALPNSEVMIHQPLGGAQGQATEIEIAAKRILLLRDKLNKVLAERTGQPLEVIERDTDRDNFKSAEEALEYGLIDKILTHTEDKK
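Purified B. subtilis ClpP, 10 microg/mL final in Tris/HCl pH8 with KCl, BSA, glycerol and Tween-20, cleaved an Abz/nitrotyrosine-quenched decapeptide. Fluorescence (ex 320, em 430) was read at 0 and 20 min at room temperature. Delta was normalized to 5.8 microM ADEP and DMSO/no-enzyme controls.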
PINK1 modulator: changes PINK1 expression. Potency, µM (highest dose often 76.6 µM), for the others: top-dose activation (PINK1 increase), most hits filed as activators. actives 0.2% (n = 410,000). PINK1 immunofluorescence, high-content cytometry, 24 h; active = well fitted activation curve with a large enough effect; inconclusive = small, poorly fitted or top-dose-only effect; inactive = flat fitted curve, though single readings scatter; cell line not stated here;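 also: potency is read from the fitted curve at half-maximal effect; % of control where 0% means no effect; nearly all actives have a fitted effect of over 65% in size; a mitochondrial uncoupler was the plate control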
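Compound titrations (5 concentrations, 24 h) on a stable cell line; DMSO and CCCP controls. Endpoint: fixed-cell PINK1 immunofluorescence with mitochondrial, cell and nuclear markers, scanned by microplate cytometer.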
gsp antag: antagonists of gsp mutant (McCune-Albright syndrome); gsp-mutant cells, cAMP HTRF, 30 min; control for the full effect not named in the record; Potency, µM (series often up to 76.9 µM), inactives show at the highest dose activity change, negative = inhibition, hits mostly inhibitors; actives 0.4% (n = 340,000); active = falling curve of any shape with a large fitted effect; inconclusive = falling curve, mostly with a smaller effect; inactive = flat or rising curve; cell line not stated here;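 also: intracellular cAMP measured with PDE inhibitor Ro 20-1724 present during compound exposure; potency is read from the fitted curve at half-maximal effect; % is scaled to controls: 0 for no effect and ±100 for the full control effect; nearly all actives have a fitted effect of over 65% in size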
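Measurement of cellular cAMP by homogeneous time-resolved fluorescence following a 30 min compound exposure at 37C. The PDE inhibitor […] was present throughout; the assay buffer was DPBS with 0.05% BSA and 0.005% Tween 20.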
D2 agonist: activates the human D2 dopamine receptor; P14416; actives 0.084% (n = 360,000); activation, % (no concentration beside the values); DiscoveRx PathHunter D2 beta-arrestin, luminescence, 90 min; 100% = 57 uM dopamine signal; in the data active = activation above about 40%; inconclusive = about 15% to 40%; inactive = below about 15%; also: compound concentration not given in the record; the text of the record calls up to 30% inactive
Target sequence (P14416 whole entry, looked up): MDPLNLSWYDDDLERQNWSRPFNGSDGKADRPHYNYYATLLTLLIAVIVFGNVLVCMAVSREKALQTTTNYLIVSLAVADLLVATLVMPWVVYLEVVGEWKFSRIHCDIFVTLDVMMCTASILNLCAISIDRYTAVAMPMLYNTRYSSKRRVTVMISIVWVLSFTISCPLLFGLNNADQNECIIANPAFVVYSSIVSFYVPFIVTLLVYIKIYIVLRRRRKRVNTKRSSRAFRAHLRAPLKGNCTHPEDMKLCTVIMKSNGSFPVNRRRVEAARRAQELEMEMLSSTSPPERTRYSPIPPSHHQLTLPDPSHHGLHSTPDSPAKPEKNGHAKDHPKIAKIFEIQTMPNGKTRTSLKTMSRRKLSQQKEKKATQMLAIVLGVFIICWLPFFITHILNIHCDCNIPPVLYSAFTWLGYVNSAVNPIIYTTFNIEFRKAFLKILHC
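DiscoveRx PathHunter D2 beta-arrestin cells (2,100/well) attached overnight, then compound-stimulated 90 min at 37 C in HBSS/10 mM HEPES/0.1% Tween-20 buffer; beta-galactosidase complementation read by luminescence after 1 h at ambient temperature. Dopamine 57 uM final (EC100) as control.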
Menin MLL FP FL: inhibitors of human menin-MLL interaction, wild-type MLL peptide; Fluorescence polarization, fluorescein-MLL peptide displacement from menin; FP activity change, % at 61.4 µM; 290,000 tested, under 10 active; inconclusive = falling polarisation curve, or a change in total fluorescence; inactive = total fluorescence flat and polarisation flat or rising; no compound was filed as active; the % refers to the polarisation; negative = inhibition;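 also: % of control where 0% means no effect; inhibitors lower the polarisation; unlabelled MLL peptide was the positive control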
* = called active by the depositor; ? = inconclusive; / = not tested or not shown; [ ] = another dose, or the depositor's remark.

SMILES	gsp agonist	Sfp PPTase inh	ClpP mod	PINK1 modulator	gsp antag	D2 agonist	Menin MLL FP FL
Cc1ccc(S(=O)(=O)/N=C2\C(=O)c3ccccc3C([O-])=C2n2cc[n+](CCC(C)C)c2)cc1	12.2%	6.1%	0.6%	-7.6%[38.3 µM]	-8.3%	1.6	-1.8
CN(C)S(=O)(=O)n1cc(/C=C(\NC(=O)c2ccccc2)C(=O)NCCCN2CCOCC2)c2ccccc21	4.5%	-11.4%	-5.5%	-1.8%	1.1%	-6.4	/
COc1ccc(C(=O)N(C)C(C)c2nccs2)cc1OC1CCN(C(C)=O)CC1 (stereo not drawn)	-4.3%	/	-0.9%	1.4%	/	-1.7	/
CCc1ccccc1S(=O)(=O)Cc1ccc(C(=O)NCc2ccc3c(c2)OCO3)o1	-1.3%	-2.4%	0.4%	0.4%	-10.7%	-2.5	1.3
c1ccc(-c2nc(-c3cccnc3)cs2)cc1	26.9%	-10.1%	-6.6%	0.2%	6.3%	-1.6	-3.0
CN(C)c1ccc(/C=N/NC(=O)CCC(=O)NCc2ccccc2)cc1	2.5%	2.4%	10µM*	2.9%	-9.7%	-2.5	1.6
O=C1CCCC(=O)N1c1ccc(NCCOCCO)c([N+](=O)[O-])c1	-22.1%[15.4 µM]	13.1%	/	-1.1%	7.3%	-2.4	3.7
COc1ccc(S(=O)(=O)N2CCCC(C(=O)NC3CCCCC3)C2)cc1 (stereo not drawn)	-22.9%	6.0%	-0.9%	2.1%	10.1%	-1.5	-3.8
O=C(NCCc1ccccc1)c1ccc2nc(N3CCOCC3)sc2c1	24.7%	3.8%	-9.6%	7.5%	-0.6%	7.1	-7.7
CN(C)C=Nc1nonc1-c1ccc(Cl)cc1	-2.6%	17.4%	-0.1%	2.3%	-2.8%	-3.9	1.2
COCCN(C(=O)c1cc(-c2ccncc2)nc2ccccc12)c1c(N)n(CC(C)C)c(=O)[nH]c1=O	7.5%[15.4 µM]	/	-24.8%	-0.2%	9.1%	-2.2	/
O=C(CN(Cc1ccc(F)cc1)C(=O)Cn1nnc2ccccc21)NCC1CCCO1 (stereo not drawn)	4.0%	1.0%	-0.2%	1.3%[38.3 µM]	-4.9%	-1.4	-3.9
CC(=O)c1cccc(NS(=O)(=O)c2cc(OCC(N)=O)c(C)cc2Cl)c1	26.0%	8.6%	0.4%	-1.3%	-19.0%	-0.4	-2.3
O=C(NCC1COc2ccccc2O1)C1CCN(S(=O)(=O)c2ccc(Cl)cc2)CC1 (stereo not drawn)	9.2%	/	0.3%	1.8%	?	5.7	/
COc1ccc(C(C)(C)C)cc1NC(=O)Nc1ccc2c(c1)OCO2	-27.1%	3.2%	-10.1%	-2.7%	-17.0%	-2.0	1.7
O=C(Nc1ccccc1NC(=O)NC1CCCCC1)NC1CCCCC1	6.9%	27.1%	-1.8%	?	7.2%	-0.7	-0.2
CCOC(=O)c1c(CN2CCCCC2)n(C)c2cc(Br)c(O)c(CN(C)C)c12	-0.8%	-11.7%	4.7%	-0.3%	-4.3%	-5.3	-1.8
O=C(O)CC(CNS(=O)(=O)c1cccc2nsnc12)c1ccccc1 (stereo not drawn)	-0.8%[15.4 µM]	-18.0%	/	-0.7%	6.9%	-6.8	-2.0
COc1ccc(NC(=S)NC2CCS(=O)(=O)C2)cc1 (stereo not drawn)	0.6%	7.1%	0.8%	-0.5%	10.6%	-1.0	-0.4
Cc1ccc(-c2c3c([nH]c(=S)c2C#N)CCCC3)o1	?	8.91µM*	-1.0%	5.3%	14.7%	-3.9	?
O=C(N/N=C/c1cc(O)ccc1[N+](=O)[O-])c1ccc2c(c1)OCCO2	-7.6%[15.4 µM]	3.0%	/	-1.5%	2.8%	-3.1	0.3
CN(C)Cc1cccc(-c2ccccc2)c1O	16.0%	/	/	5.6%	6.3%	-1.6	/
Cc1cc(C(=O)N2CCCCCC2)cs1	6.0%	13.9%	-0.7%	-1.2%[38.3 µM]	7.6%	-2.5	5.1
CCN1C(=O)C(=O)c2cc(C)ccc21	/	/	-26.4%	3.2%	8.3%	-2.1	/
Cc1nc2sc(C(=O)OC(C)C)c(N)c2c(C)c1C	-9.2%[15.4 µM]	-8.7%	/	7.1%	9.4%	-1.5	1.7
COc1ccc(NC(=O)C2CC2)cc1OC1CCCC1	-1.2%[15.4 µM]	?	0.3%	1.5%	17.1%	0.3	-4.7
Cc1nc(NC(=O)COC(=O)CNC(=O)c2ccco2)c(Cl)cc1Cl	-3.8%	/	-3.2%	1.5%	-2.7%	0.2	/
Cc1ccc(C2=N/C(=C\N(C)C)C(=O)O2)cc1	-29.0%	9.2%	0.6%	1.8%[38.3 µM]	9.0%	-1.1	-0.1
O=C(c1cccs1)N1CCN(C/C=C/c2ccccc2)CC1	-13.8%	1.3%	-2.0%	-3.1%	3.8%	4.7	2.3
Cc1ccc(S(=O)(=O)N2CCOC2CNC(=O)C(=O)NCc2ccco2)cc1 (stereo not drawn)	-0.9%	-5.0%	0.7%	0.0%	5.1%	-1.7	3.4
O=C(CCc1nc2ccccc2c(=O)[nH]1)OCc1cccc(C(F)(F)F)c1	?	7.2%	1.6%	8.6%	-0.6%	-1.7	-0.3
Fc1ccccc1OCCSc1nnnn1-c1ccccc1	9.7%	-3.2%	1.4%	4.1%[38.3 µM]	-13.8%	-2.6	0.9
CC1CC(C)CN(C(=O)C(C)N(C)CC(=O)Nc2ccc(Cl)cc2)C1 (stereo not drawn)	-2.4%	?	0.9%	0.8%	-8.3%	-19.4	-5.2
C(=NN=C1c2ccccc2-c2ccccc21)c1c[nH]c2ccccc12	6.9%	/	-1.3%	-6.3%	7.8%	-5.1	/
O=C(CCC1N=C2c3ccccc3N=C(SCc3ccccc3Cl)N2C1=O)NCc1ccco1 (stereo not drawn)	3.1%	?	?	1.9%	-6.5%	-1.6	0.0
COc1ccccc1Nc1cc(C)nc2c(C)cccc12	-28.3%	/	2.3%	6.3%	/	2.7	/
CCCS(=O)(=O)NC(=O)C1(C)CCN(C(=O)c2c(-c3ccccc3)noc2C)C1 (stereo not drawn)	/	/	-2.9%	2.3%	/	-10.7	/
Cc1cccc(N2CCN(C(c3ccncc3)c3nnnn3C(C)(C)C)CC2)c1C (stereo not drawn)	0.4%[15.4 µM]	5.0%	/	0.6%	-3.3%	-2.5	1.2
CN(Cc1cccnc1)C(=O)Cc1ccc(NS(=O)(=O)c2cccc(C(F)(F)F)c2)cc1	?	11.6%	/	0.0%	-4.8%	7.0	0.1
CCOC(=O)N1CCC(N2C(=O)c3ccccc3C2Nc2ccccc2)CC1 (stereo not drawn)	-92.7%[inhibitor]	3.7%	-0.5%	0.5%	-9.8%	-5.9	1.9
COc1ccccc1CNc1ncnc2ccc(-c3ccccc3OC)cc12	/	-11.9%	/	-1.3%	/	/	-0.8
COc1ccccc1-c1cn(S(=O)(=O)c2ccc(C)cc2)nc1N	-17.8%	9.2%	-4.0%	-3.0%	-12.3%	-0.3	3.4
O=C(CSc1ncccn1)N/N=C/c1ccccc1[N+](=O)[O-]	28.7%[15.4 µM]	16.1%	/	-1.2%	-1.8%	2.3	-1.9
CCC(=O)Nc1nonc1-c1nc2ccccc2n1Cc1ccccc1	3.2%	14.8%	?	5.0%	-7.3%	3.6	-0.7
CCCn1nc(C(=O)OCC(=O)Nc2ccc(C(N)=O)cc2)c2ccccc2c1=O	6.9%[15.4 µM]	/	0.6%	0.0%	-12.4%	2.9	/
O=C(CC1C(=O)NCCN1Cc1ccc(F)cc1Cl)NCc1ccon1 (stereo not drawn)	-2.5%	18.1%	-1.0%	-2.1%	17.8%	5.3	/
CC(C)N(Cc1ccccc1)C(=S)NCc1ccccc1	-3.5%[15.4 µM]	15.5%	/	0.0%	/	0.7	-4.4
COc1ccc(-n2cnnc2SCC(=O)Nc2ccccc2F)cc1	?	12.7%	1.4%	-2.1%	7.9%	-11.9	0.9
CCOC(=O)N1CCN(C(=O)c2cc3c(=O)[nH]c4ccccc4c3s2)CC1	-10.4%[15.4 µM]	-1.7%	-1.6%	0.4%	-7.8%	1.2	1.0
CNc1cccc(-c2ccccc2CO)n1	/	/	5.0%	0.7%	/	-2.3	/
COc1cccc(-c2c(-c3cc(OC)cc(OC)c3)n(C)c3ccc(-c4cnc(N5CCOCC5)nc4)cc23)c1	-142.9%[inhibitor]	/	2.6%	3.5%	-17.0%	-4.1	/
CN1CCN(/C=N/c2c(C#N)cnn2C)CC1	4.6%	36.9%[activator]	0.2%	1.2%	1.5%	-7.4	0.0
COc1ccc2c(c1)CCC1(C)CC(=O)C=C21 (stereo not drawn)	37.8%	/	4.4%	-2.1%	/	-4.3	/
C=C1C(=O)O[C@H]2[C@H]1[C@H](OC(=O)/C(C)=C\C)C[C@]1(CO1)[C@@H]1[C@H](OC(C)=O)C=C(C)[C@]21O	7.3%	/	-2.2%	4.5%	-9.1%	-3.3	/
CN(C)c1cccc2c1c(NC(=O)Nc1ccc(Cl)cc1Cl)nn2C	7.4%	-6.0%	?	0.3%	-9.3%	-3.7	-0.8
Nc1nnc(-c2ccccc2Cl)s1	-29.2%	?	?	-0.9%	3.8%	1.5	4.2
CCN(Cc1ccccc1)c1c(C(=O)O)cnc2c1cnn2C	-35.4%[inhibitor]	23.7%	/	1.9%	-7.6%	2.5	-1.7
COc1ccc(/C=C2\SC(=O)N(CCC(=O)Nc3ccccc3)C2=O)cc1OC	?	-5.4%	-10.9%	10.9%	?	-2.6	6.8
O=C(CSc1ncnc2scc(-c3ccc(Cl)cc3)c12)NCc1ccc2c(c1)OCO2	21.3%	7.5%	2.4%	6.5%	-0.8%	-0.2	0.3
COc1ccc(OCCC(=O)OCC(=O)NC(=O)NC(C)(C)C)cc1	-2.1%	4.6%	-1.7%	1.0%	-5.5%	-0.7	3.8
O=C(NC(Cc1ccccc1)C(=O)O)/C(=C\c1ccc(F)cc1)NC(=O)c1ccco1 (stereo not drawn)	0.6%	17.4%	/	2.5%	16.8%	1.1	-3.4
CC(=O)Nc1cccc(NC(=O)CSc2ncc(-c3ccc(Cl)cc3)n2Cc2ccco2)c1	-30.0%[inhibitor]	?	0.3%	-0.7%	?	2.9	-1.0
